# VDR inhibitor: blocks the human vitamin D receptor | AID 504847 | VDR-SRC2-3 peptide fluorescence polarization, 2 h | Potency, µM, without a hit: max response, negative = inhibition, most hits filed as inhibitors | 400,000 compounds, 0.93% hits | P11473; active = well fitted inhibition curve with a large enough effect; inconclusive = small, poorly fitted or top-dose-only effect, or another doubt; inactive = no such curve, though single readings can be large or run the other way; also: series mostly up to about 120 µM
# Target sequence (P11473 whole entry, looked up): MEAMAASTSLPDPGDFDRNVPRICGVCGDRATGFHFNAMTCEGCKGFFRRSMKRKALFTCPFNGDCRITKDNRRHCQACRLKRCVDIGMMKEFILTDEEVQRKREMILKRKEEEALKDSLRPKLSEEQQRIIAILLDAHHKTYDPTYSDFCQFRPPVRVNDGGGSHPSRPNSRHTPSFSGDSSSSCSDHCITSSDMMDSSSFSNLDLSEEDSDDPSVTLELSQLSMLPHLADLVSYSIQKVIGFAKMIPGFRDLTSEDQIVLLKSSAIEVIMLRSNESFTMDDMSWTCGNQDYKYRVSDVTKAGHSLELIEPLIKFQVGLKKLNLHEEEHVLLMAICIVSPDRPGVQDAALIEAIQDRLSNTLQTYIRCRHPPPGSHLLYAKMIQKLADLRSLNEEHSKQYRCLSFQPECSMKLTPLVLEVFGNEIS
#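 Fluorescence polarization assay of small-molecule disruption of VDR binding to coregulator peptide SRC2-3. Compounds and controls pin-transferred, then read after 2 h incubation at ambient room temperature.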
# An asterisk follows results filed as active; ? = inconclusive; & = joins results of further samples; [ ] = another dose, or the depositor's remark. % is scaled to controls: 0 for no effect and ±100 for the full control effect; potency is read from the fitted curve at half-maximal effect. This is a subset (hit frequency here may not be typical).
SMILES,VDR inhibitor
O=C(NCCc1ccccc1)c1c2c(nc3ccccc13)C(=O)N(C1CCCCC1)C2,13%
CCOc1ccccc1C(=O)N(CN1CCCC1=O)c1cccc(Cl)c1,-2%
COc1ccc(C2=NS(=O)(=O)N(C)C(C(=O)NC3CCCC3)=C2)cc1,-7%
COc1ccccc1C1CCN(C(=O)c2ccc(C(C)(C)C)cc2)CC1,-3%
CN1CCN(S(=O)C23CC4CC(CC(C4)C2)C3)CC1 (stereo not given),17%
CC(C)C(=O)N1CCN(c2ccc([N+](=O)[O-])cc2Cl)CC1,-9%
COCC(C)NC(=O)C1CC(=O)N(c2ccc(C)cc2)C1 (stereo not given),4%
COc1ccc(Nc2nc3ccc(C)cn3c(=O)c2/C=N/O)cc1,-4%
Cc1cc(C)cc(NC(=O)CSc2oc(-c3ccco3)nc2S(=O)(=O)c2ccccc2)c1,8%
COc1ccc(CCN2C(=O)NC(NC(=O)CC(C)C)(C(F)(F)F)C2=O)cc1OC (stereo not given),-7%
Cc1ccc(NS(=O)(=O)c2ccc(C(=O)N3CCCC(C(F)(F)F)C3)cc2)cc1 (stereo not given),6%
O=C(Nc1nccs1)c1nc[nH]c1C(=O)N1CCc2ccccc2C1,-12%
O=C(O)C(Cc1ccc(F)cc1)c1ccccc1 (stereo not given),-28%
CCN(CC)S(=O)(=O)c1ccc(NN=C2CCN(C)CC2)c([N+](=O)[O-])c1,0%
CCOc1ccc(N(Cc2ccc(OC)c(OC)c2)C(=O)c2ccco2)cc1,-8%
CC1CCN(C(=S)c2ccccc2O)CC1,?
CCOc1ccc(/C=C/c2nc(C#N)c(N3CCN(c4ccc(OC)cc4)CC3)o2)cc1,-2%
Cc1cc2cc(CNC(=O)c3ccc(S(=O)(=O)N4CCCCC4)cc3)ccc2[nH]1,-9%
COc1cc(CN(CC2CCCO2)C(=O)c2ccco2)cc(OC)c1OC (stereo not given),19%
O=C(COC(=O)Cc1ccc(Cl)cc1)NCc1ccco1,-1%
COc1ccc(-c2cc(C(=O)OCC(=O)N3CCCCC3)c3ccccc3n2)cc1OC,6%
Cc1ccccc1S(=O)(=O)Cc1ccc(C(=O)NC2CC2)o1,-8%
CCNC(=S)/C(=C(/[O-])c1ccc([N+](=O)[O-])cc1)[n+]1ccccc1,-4%
CCOC(=O)C1=C(CSc2nc3ccccc3s2)NC(=O)NC1c1cc(C)ccc1C (stereo not given),-12%
Cc1nn(-c2ccccc2)c2sc(C(=O)NC3CCCCC3)cc12,0%

# Further structures:
SMILES,VDR inhibitor
CSCC[C@H](NC(=O)CN)C(=O)N[C@@H](CC(=O)O)C(=O)N[C@@H](CO)C(=O)N[C@@H](CC(C)C)C(=O)N[C@@H](C)C(=O)N[C@@H](Cc1ccccc1)C(=O)N[C@@H](CO)C(=O)NCC(=O)NCC(=O)N[C@@H](CC(C)C)C(N)=O,4%
Cc1ccc(/C(O)=C2/C(=O)C(=O)N(CCCn3ccnc3)C2c2cccnc2)cc1 (stereo not given),-13%
CCn1nc(C)c(CCN(C)C(=O)Nc2cc(Cl)c(OC)cc2OC)c1C,13%
COc1ccc(OC)c(S(=O)(=O)N2CCCC(C)C2)c1 (stereo not given),16%
O=C(COCc1cc(-c2cccs2)on1)Nc1cccc(O)c1,6%
COc1cc(NC(=O)c2cc(-c3ccccc3)nc3c2cnn3C(C)C)cc(OC)c1OC,-10%
Cc1ccc(NC(=O)C2CCC(N3C(=O)C4CCCCC4C3=O)CC2)cc1 (stereo not given),-5%
CCOC(=O)C1CNc2cc(S(=O)(=O)CC)ccc2O1 (stereo not given),8%
CC(C)(C)c1ccc(S(=O)(=O)Nc2cccc(C3OCCCO3)c2)cc1,-1%
CCCCn1c(NC(=O)C2CCCCC2)nc2ccccc21,-5%
COC(=O)c1nc(-c2ccccc2)n[nH]1,-2%
CCOc1ccc2nc(CN3CCN(Cc4ccccc4OCC)C(CCO)C3)ccc2c1 (stereo not given),-24%
CCc1cccc(CC)c1NC(=O)C(NS(=O)(=O)c1cccs1)c1ccccc1 (stereo not given),0%
CCOc1ccccc1NC(=S)Nc1ccc2cn[nH]c2c1,-9%
NC1=NC2(CCCCC2)N=C(Nc2ccc(Br)cc2)N1,-13%
O=C(COC(=O)CCNS(=O)(=O)c1ccccc1)NNC(=O)c1ccccc1,-3%
C=CCn1c(SCC(=O)c2ccc(OC)cc2)nnc1C(C)NC(=O)c1cccs1 (stereo not given),10%
CN(C)C1=NCCN1CC1CCCC1,-19%
COc1cc(OC)c(NC2=NCCCCC2)cc1Cl,-7%
COc1ccc(CCNC(=O)CC(=O)NCCc2ccc(OC)cc2)cc1,-5%
CCN1CCN(CCCN(Cc2ccco2)C(=S)Nc2ccc(Cl)c(C)c2)CC1,-17%
CCn1c2ccccc2c2cc(NC(=S)N3CCOCC3)ccc21,4%
CCOc1ccc(N(CC)C(=O)c2cc3c(s2)-c2ccccc2OC3)cc1,-14%
COc1ccc(NC(=O)c2ccccn2)cc1,7%
CCOC(=O)C1(Cc2ccccc2C)CCCN(C(=O)CCc2cccnc2)C1 (stereo not given),5%

# In a second layout: 2 of the compounds above.
COc1ccc(NC(=O)c2ccccn2)cc1
  VDR inhibitor: 7%

CCOC(=O)C1(Cc2ccccc2C)CCCN(C(=O)CCc2cccnc2)C1 (stereo not given)
  VDR inhibitor: 5%

# Continued:
SMILES,VDR inhibitor
O=C(CN1C(=O)COc2ccc(S(=O)(=O)N3CCCCCC3)cc21)NCc1ccc(F)cc1,-7%&0%
Cc1cccc(C(=O)NCC(=O)OCc2cc(=O)n3nc(C4CC4)sc3n2)c1,5%
Cn1c(NC(=O)c2ccc(F)cc2)c(-c2ccccn2)c(=O)c2ccccc21,-21%
CC(=O)c1ccc(NC(=S)NC(=O)/C=C/c2ccco2)cc1,?
COc1ccc(CNC(=O)c2ccccc2[N+](=O)[O-])cc1,3%
COc1ccccc1-n1nc(C)cc1N,7%
Cc1c(C#N)c2ncn(Cc3ccccn3)c(=O)c2n1-c1ccccc1,-18%
CCn1nc(C)cc1C(=O)N1CCCC(C(=O)c2ccc3ccccc3c2)C1 (stereo not given),-14%
CCOc1ccc(NS(=O)(=O)c2ccc(C(=O)N3CCN(c4ncccn4)CC3)cc2)cc1,2%
NS(=O)(=O)c1ccc(NC(=O)c2cc(Cl)ccc2Cl)cc1,32%[activator]
CCN(CC)CCNC(=O)c1ccc(-n2c(-c3ccccc3)cc3c2CCCC3)cc1,6%
CC(C)NC(=O)C1CCN(C(=O)N2CCOc3ccc(Cl)cc32)CC1,3%
CC(=O)Nc1nnc(CCS(=O)(=O)c2ccc(C)c(C)c2)s1,3%
CC(C)OCCCNC(=O)c1ccc2c(c1)N(Cc1c(F)cccc1Cl)C(=O)c1ccccc1S2,-14%
CCOC(=O)c1c(NC(=O)Cc2cccs2)sc(C(=O)NC2CCCC2)c1C,-18%
COc1ccc(N2C(=O)[C@H]3[C@@H](C2=O)C2c4ccccc4C=NN2[C@H]3C(=O)C(C)(C)C)cc1 (stereo not given in full),-14%
COc1ccc(-c2nc(SCC(=O)Nc3ccc4c(c3)OCCO4)c(-c3ccc(C)cc3)[nH]2)cc1OC,13%
COc1ccc(N(CCC#N)C(=O)/C(C#N)=C\c2cccs2)cc1,-1%
COc1cc(C(=O)NCC2CCCO2)ccc1OCc1ccccc1Cl (stereo not given),-3%
COC(=O)C1CCN(CC(=O)Nc2ccccc2Sc2ccccc2)CC1,12%
C=CCOc1c(Br)cc(/C=N/n2c(CC)n[nH]c2=S)cc1Br,15%
COc1cccc(S(=O)(=O)NCc2ccc(C(=O)Nc3ccc(C)cc3)cc2)c1,17%
O=C(NCc1ccc(Cl)cc1)C1CCN(c2nnc(N3CCCC3=O)s2)CC1,14%
COc1ccc(NC(=O)Nc2ccc3c(c2)C(=O)N([C@H](C)CO)C[C@H](C)[C@@H](CN(C)C(=O)Nc2ccc4c(c2)OCO4)O3)cc1,?
COc1ccc(C(=O)NCC(=O)OCC(=O)N2CC(C)CC(C)C2)cc1 (stereo not given),3%

# Carrying on.
SMILES,VDR inhibitor
Cc1ccsc1/C=N/n1c(-c2cccnc2)n[nH]c1=S,-8%
CC1(C)Cc2c(C#N)c(NCC3CCCO3)nc(-c3ccco3)c2CO1 (stereo not given),0%
CCCC1OC2CC3C4CCC5=CC(=O)C=CC5(C)C4C(O)CC3(C)C2(C(=O)O)O1 (stereo not given),4%
O=C(Nc1cc(C(F)(F)F)ccc1N1CCCC1)C1CCCO1 (stereo not given),1%
O=C(O)CC(=O)Nc1cc(Cl)ccc1O,1%
O=C(c1cc2cc(Br)ccc2o1)N1CCCCC1,-21%
Cc1ccc(OC/C(=N\O)C(C)(C)C)c([N+](=O)[O-])c1,-3%
O=C(CSc1cnc2ccccc2n1)NC1CCCC1,0%
O=S(=O)(N(Cc1ccccc1)[C@@H](CO)Cc1ccccc1)N(Cc1ccccc1)[C@@H](CO)Cc1ccccc1,-14%
O=[N+]([O-])c1ccc(N2CCN(C(=S)NCc3ccc(Cl)cc3)CC2)cc1,-10%
C[N+]1(CCCCSc2ccc(O)cc2)CCCCC1,-6%
NC(=O)C1(c2ccccc2)CCOCC1,8%
CC(=O)c1ccc(N2CCN(c3ncnc4c3cnn4C)CC2)cc1,6%
O=C(CN1C(=O)c2ccccc2S1(=O)=O)NCc1ccccn1,3%
Cc1ccc(CNC(=O)CSC2=Nc3ccccc3N=C(c3ccc(F)cc3)C2)cc1,13%
COc1ccc(C2=NN(c3ccccc3)C(c3cccs3)C2)cc1 (stereo not given),10%
C=CCN(C(=O)CN1CCOCC1)c1nc(C)c(-c2ccccc2)s1,-5%
Cc1ccc(OCCNC(=O)c2ccc3c(c2)OCO3)cc1,26%
COc1nc(NC(C)C)nc(N(C#N)CN2C(=O)c3ccccc3S2(=O)=O)n1,-5%
Cc1ccc(-c2c(C)n3c4c(=O)n(C)c(=O)n(C)c4nc3n2CCO)cc1,0%
NCCC[C@@H](CC(=O)N[C@@H]1CCNC[C@H]1C(=O)N[C@H](CC(=O)N[C@@H](CCC(=O)O)CC(=O)O)Cc1c[nH]c2ccccc12)NC(=O)C[C@H](Cc1ccccc1)NC(=O)[C@@H]1CNCC[C@H]1N,-6%
CCn1c(O)c(N=NC(=O)c2cccnc2)c2cc(Br)ccc21,9%
CCOC(=O)c1cnc2c(C)c(Cl)ccc2c1NCCc1ccccc1,2%
Cc1cc(OCC(=O)Nn2cnnc2)c(C)cc1Br,3%
COc1ccccc1CNC(=O)C1CCCN(C(=O)c2cnn(-c3ccc(F)cc3)c2-n2cccc2)C1 (stereo not given),2%

# An excerpt from above in order of their number in VDR inhibitor, descending:
Molecule | VDR inhibitor
CCCC1OC2CC3C4CCC5=CC(=O)C=CC5(C)C4C(O)CC3(C)C2(C(=O)O)O1 (stereo not given) | 4%
O=C(CN1C(=O)c2ccccc2S1(=O)=O)NCc1ccccn1 | 3%
O=C(CSc1cnc2ccccc2n1)NC1CCCC1 | 0%

# (more compounds)
SMILES,VDR inhibitor
C(=N\n1cnnc1)/c1cccc(OCCOc2ccccc2)c1,-16%
COc1cccc(C(=O)NC(=S)Nc2cccnc2)c1,-8%
O=C(Nc1cccc(Cl)c1)OC1CCCCc2cccnc21 (stereo not given),7%
COc1ccc(CC(NC(C)=O)C(=O)NC2CCN(C(=O)Nc3ccccc3Cl)CC2)cc1OC (stereo not given),-12%
CN(CC(=O)Nc1ccc(F)cc1)C(=O)COC(=O)C1=COCCO1,-19%
CCOc1ccc(-n2c(CCc3ccccc3)n[nH]c2=S)cc1,-11%
NC(=O)c1ccccc1NS(=O)(=O)c1ccc2c(c1)OCCO2,-13%
CCOc1cc(C(=O)N/N=C/c2ccoc2)cc(OCC)c1OCC,-11%
COc1cccc(-c2nc(NCCc3c[nH]c4ccc(OC)cc34)c3ccccc3n2)c1,-13%
CC(=O)Nc1ccc(C2=NNC(=Nc3cccc(S(=O)(=O)N(C)C)c3)SC2)cc1,?
CC1CN(C(=O)CCS(=O)(=O)c2ccccc2)CC(C)O1 (stereo not given),-2%
CC(C)CC(=O)c1c[nH]c(C(=O)N2CCN(Cc3ccccc3)CC2)c1,-8%
Cc1ccc(C2(c3ccccc3)NC(=O)N(CC(=O)N(C)C3CCS(=O)(=O)C3)C2=O)cc1C (stereo not given),-29%
Cc1cc(C)nc(NC(=O)C2c3ccccc3Oc3ccccc32)n1,1%
Cc1cccc(-n2c(O)c(C=Nc3ccc(O)cc3)c3ccccc3c2=O)n1,-2%
CC(C)C[C@@H](CSc1ccccc1)N1CCN(CC(C)C)CCC1=O,-10%
COc1cc(C(=O)NCCN=C2NS(=O)(=O)c3ccccc32)cc(OC)c1OC,20%
CCC(CC)NC(=O)Cc1ccc(S(=O)(=O)N2CCOCC2)s1,-7%
Cc1ccc(CN2CCC(c3cc(-c4ccc(Cl)cc4)n[nH]3)CC2)cc1,-23%
Cc1cc(C)nc(OC(C(=O)O)C(OCc2ccccc2)(c2ccccc2)c2ccccc2)n1 (stereo not given),-20%
Cn1cc(S(=O)(=O)N2CCOCC2)cc1C(=O)Nc1ccc(Cl)cc1,-14%

# Laid out differently: entries from further up
CCC(CC)NC(=O)Cc1ccc(S(=O)(=O)N2CCOCC2)s1
  VDR inhibitor: -7%
CC(C)CC(=O)c1c[nH]c(C(=O)N2CCN(Cc3ccccc3)CC2)c1
  VDR inhibitor: -8%
NC(=O)c1ccccc1NS(=O)(=O)c1ccc2c(c1)OCCO2
  VDR inhibitor: -13%
O=C(Nc1cccc(Cl)c1)OC1CCCCc2cccnc21 (stereo not given)
  VDR inhibitor: 7%
